Compound activity deposited in PubChem BioAssay by National Center for Advancing Translational Sciences (NCATS).
PMP22 txn prim: Cell-based coincidence reporter assay to measure PMP22 gene transcription in S16 Pmp22-F2sN cells - Primary screen; S16 Pmp22-F2sN Schwann cells (luciferase reporters placed in the Pmp22 gene), FLuc/NLuc coincidence luminescence, 24 h; Potency, µM (top dose mostly 57.5 µM), for the others: top-dose activity change, negative = inhibition, usual class: inhibitors; 43,000 tested, 2% active; AID 1508649, 2021; active = clear falling dose curves in both reporters; inconclusive = both reporters move, but less clearly or upward; inactive = either reporter flat; the % is the NLuc reporter signal; note: % is set by controls: 0 for no effect and ±100 for the full control effect; some results filed as inactive show a strong effect at the top dose
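Schwann cells carrying the coincidence reporter were exposed to library compounds for 24 h at 37C, then lysed and read for FLuc and, after quenching, NLuc luminescence on a CCD imager.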
HTT promoter inh: Primary qHTS for Identification of Small Molecule Inhibitors of Huntingtin Promoter Activity | Potency, µM (titrated, usually from 57.5 µM), for inactives: at the top dose activity change, negative = inhibition, most hits filed as inhibitors | 48,000 tested, 0.93% active | HEK293 HTT promoter firefly luciferase reporter (activity 0% = vehicle and -100% = no light), 24 h; active = well fitted inhibition curve with a large enough effect; inconclusive = small, poorly fitted or top-dose-only effect; inactive = no such curve, though single readings can be large or run the other way; note: nearly all actives have a fitted effect of over 50% in size
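Firefly luciferase readout (Dual-Glo, 10 min RT) after 24 h, 37 °C compound exposure (final up to 57.5 uM) of HEK293 reporter cells cultured 24 h beforehand; PTC124 at 50 uM final as control inhibitor; activity scaled vehicle 0%, zero RLU -100%.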
* hit, by the source's call; u = inconclusive; x = no result given; [ ] = another dose, or the depositor's remark. Potency is the fitted concentration of half-maximal effect. Some of the compounds tested; count on the stated rates, not on these rows.

SMILES	PMP22 txn prim	HTT promoter inh
Cc1ccc(CNC(=O)c2cc(-c3ccc(C)cc3)nc3n[nH]c(-c4cccc([N+](=O)[O-])c4)c23)cc1	u	-8.9%
CCOc1ccc(C(=O)c2cn(CC(=O)Nc3ccc(F)cc3)c3cc4c(cc3c2=O)OCCO4)cc1	-28.4%	u
COc1cc(NC(=O)Cc2c(C(=O)O)c(C)cn2C)cc(OC)c1	-27.4%	-15.6%
CCCC(=O)O[C@]1(C(=O)CC)CC[C@H]2[C@@H]3CCC4=CC(=O)CC[C@]4(C)[C@H]3[C@@H](O)C[C@@]21C	x	-9.4%
COc1ccc(S(=O)(=O)Nc2cc(-c3cn4ccc(C)cc4n3)ccc2C)cc1OC	u	16.0%
Cc1ccc(NC(=O)C2(c3cccs3)CCOCC2)cc1Cl	-3.6%	-10.9%
CCOCCCNC(=O)c1c(NC(=O)Cc2coc3c(C)c(C)ccc23)sc2c1CCC2	-16.5%	-28.9%
CC1CCN(S(=O)(=O)c2ccc3c(c2)CCN3)CC1	52.2%	-22.3%
Cc1c(Cl)cccc1NC(=O)c1oc2ccc(S(=O)(=O)N3CCC4(CC3)OCCO4)cc2c1C	13.9µM*	u
Cc1c(NC(=O)c2ccc(Br)o2)cccc1-c1nc2ccccc2o1	-5.8%	u
CCOc1cc(CNC(=O)Cn2c(=O)c3cccn3c3ccc(F)cc32)cc(OCC)c1OCC	u	-14.1%
CCOc1cc(C2CC(=O)Nc3nc(SCc4ccccc4)[nH]c(=O)c32)ccc1O (configuration not stated)	9.9%	-26.3%

Record cards, as listed above. Order of values: PMP22 txn prim	HTT promoter inh
CCOc1ccc(C(=O)c2cn(CC(=O)Nc3ccc(F)cc3)c3cc4c(cc3c2=O)OCCO4)cc1 is listed with -28.4%	u
CC1CCN(S(=O)(=O)c2ccc3c(c2)CCN3)CC1 is listed with 52.2%	-22.3%
COc1ccc(S(=O)(=O)Nc2cc(-c3cn4ccc(C)cc4n3)ccc2C)cc1OC is listed with u	16.0%

Carrying on.
SMILES	PMP22 txn prim	HTT promoter inh
CN(C)c1ccc(-c2nnc3n(Cc4ccccc4)c(=O)c4ccccc4n23)cc1	u	-13.2%
O=C(Nc1ccc(Cl)cc1Cl)c1cc(S(=O)(=O)N2CCCCCC2)ccc1F	-2.7%	u
COc1ccccc1NC(=O)N1CCN(c2nnc(C)c3c(C)n(-c4ccccc4)nc23)CC1	u	-11.7%
O=C(NCc1cccs1)c1ccc(CSc2nc3cccnc3n2Cc2ccccc2)cc1	-27.4%	u
COc1ccc(CCNC(=O)c2ccc(Cn3c(=O)[nH]c4cc(OC)c(OC)cc4c3=O)cc2)cc1OC	-3.4%	-8.2%
CC(=O)N1c2ccccc2C(=O)C1N1CCN(c2ccc(Cl)cc2)CC1 (configuration not stated)	-11.6%	-28.2%
COc1cc(NC(=O)C(NS(=O)(=O)c2ccc3c(c2)CCCC(=O)N3)C(C)C)cc(OC)c1 (configuration not stated)	u	-21.6%
O=C(c1cccs1)N1CCCc2cc(NS(=O)(=O)c3ccc(F)cc3)ccc21	u	u
COc1cc(NC(=O)CN2CCCN(S(=O)(=O)c3ccc(F)cc3)CC2)cc(OC)c1	-23.8%	-23.3%
CCCN(C(=O)Cn1cnc2sc(C)c(S(=O)(=O)N3CCN(c4ncccn4)CC3)c2c1=O)c1cccc(C)c1	-3.2%	-15.2%
CCc1ccc(CN2CCc3nc(N4CCN(CC)CC4)ncc3C2)cc1	5.7%	-24.2%
COc1ccc(-c2nc3sc(CCNC(=O)c4ccccc4C)c(C)n3n2)cc1	u	-21.8%
O=S(=O)(c1ccccc1)n1nc(-c2ccc(Cl)cc2)nc1NCc1ccccc1	u	10.0%
CCCCn1c(SCc2ccccc2C)nc2ccsc2c1=O	-48.3%	2.1%
Cc1ccc(CNC(=O)c2ccc(-c3nc(CS(=O)(=O)c4ccc(C)cc4)c(C)o3)cc2)cc1	13.4µM*	-20.8%
COc1cc(NC(=O)N2CCc3c(sc4c3CCCC4)C2c2ccccc2)cc(OC)c1OC (configuration not stated)	-6.0%	u
Cc1ccc(N(CC(=O)N2CCN(c3cccc(C)c3C)CC2)S(=O)(=O)c2c(C)nn(C)c2C)cc1	u	u
CCSc1nc(-c2ccccc2F)nc2c1Cc1c(CO)cnc(C)c1O2	9.3%	-13.9%
COC(=O)C(Cc1c[nH]c2ccccc12)NC(=O)COc1ccc(Cl)cc1Cl (configuration not stated)	-0.5%	-27.2%
CCOC(=O)c1ccc(Nc2nc(C(=O)OCC)nc3ccccc23)cc1	u	u
CCOC(=O)C1CCN(c2nc(-c3ccc(Br)cc3)nc3ccccc23)CC1	15µM*	u
CCOC(=O)c1sc2ccccc2c1S(=O)(=O)Nc1ccc(C(C)=O)cc1	11.1%	-0.4%
Cc1cccc(CSc2nc(=O)c3c(n2C)NC(=O)CC3c2cc(F)cc(F)c2)c1 (configuration not stated)	-78.8%	-24.5%
Cc1cccc(/C=C/c2onc(C)c2S(=O)(=O)N2CCC(C(=O)N3CCC(C)CC3)CC2)c1	-7.7%	-3.7%

Sorted by value in HTT promoter inh (highest first): 5 of the compounds above
SMILES	HTT promoter inh
O=S(=O)(c1ccccc1)n1nc(-c2ccc(Cl)cc2)nc1NCc1ccccc1	10.0%
CCCCn1c(SCc2ccccc2C)nc2ccsc2c1=O	2.1%
CCOC(=O)c1sc2ccccc2c1S(=O)(=O)Nc1ccc(C(C)=O)cc1	-0.4%
Cc1ccc(CNC(=O)c2ccc(-c3nc(CS(=O)(=O)c4ccc(C)cc4)c(C)o3)cc2)cc1	-20.8%
Cc1cccc(CSc2nc(=O)c3c(n2C)NC(=O)CC3c2cc(F)cc(F)c2)c1 (configuration not stated)	-24.5%

New compounds follow
SMILES	PMP22 txn prim	HTT promoter inh
Cc1cccc(-c2nc(CCNC(=O)COc3ccccc3)cs2)c1	10.7%	-3.7%
CC(C)N(Cc1ccccc1)C(=O)Cn1ncc2c([nH]c3ccccc32)c1=O	15.0%	-10.2%
CCc1cccc(NC(=O)C2CCCN(S(=O)(=O)c3cccs3)C2)c1 (configuration not stated)	11.1%	u
O=C(Nc1ccc(Br)cc1F)N1CCC(CN2CCc3ccccc3C2)CC1	-18.8%	-24.9%
CCS(=O)(=O)N1CC(=O)N(c2ccc(C)c(C)c2)C(C)(C(=O)NC2CCCCC2)C1 (configuration not stated)	-1.5%	5.6%
O=C(/C=C\c1ccc2c(c1)OCO2)NC1CC(=O)N(c2ccc(F)cc2)C1 (configuration not stated)	14.4%	-20.7%
Clc1ccc(C2(c3ccc(-c4cn[nH]c4)cc3)CCNCC2)cc1	x	u
COc1ccc(S(=O)(=O)NCCc2csc3nc(-c4ccccc4)nn23)cc1OC	-10.8%	-16.1%
CCOc1ccc(NC(=O)Cc2coc3ccc(C)cc23)cc1	-43.3%	-11.5%
O=C(CCn1ccc2cc(S(=O)(=O)N3CCCC3)ccc21)NCc1ccccc1Cl	-8.9%	u
O=C(Cn1c(=O)n(CCc2ccccc2)c(=O)c2c3c(sc21)CCCC3)Nc1ccc(F)c(F)c1	u	2.6%
CCN(CC)CCNC(=O)c1ccc2c(=O)n3nc(Nc4cccc(Cl)c4C)sc3nc2c1	u	u
Cc1ccccc1NC(=O)Cn1nc(-c2ccccc2)nc(Cc2ccccc2)c1=O	-3.1%	-16.8%
COc1ccc(N2C(=O)CCSC23C(=O)N(Cc2ccc(F)cc2)c2ccccc23)cc1 (configuration not stated)	u	u
Cc1ccsc1CN(C(=O)COc1cccc(C)c1C)C1CCS(=O)(=O)C1 (configuration not stated)	-20.6%	-23.5%
COc1cc2ccccc2cc1C(=O)Nc1ccc2oc(-c3cccc(Cl)c3Cl)nc2c1	4.22µM*	8.6%
COc1ccc(OC)c(CNC(=O)c2c(C)oc3ncn(CC(C)C)c(=O)c23)c1	10µM*	u
Cn1c(C(=O)N2CCC(C(=O)NCCc3ccccc3)CC2)cc2sccc21	-12.5%	-1.5%
COc1ccc(Br)cc1C(=O)Nc1ccc2oc(-c3cccnc3)nc2c1	5.4%	5.5%
O=C(NO)c1ccccc1	x	-17.6%[116 µM]
Cc1c(CC(=O)NCCc2ccc(Cl)cc2)c(=O)oc2c(C)c3occ(C(C)(C)C)c3cc12	u	-3.3%
Cc1oc(-c2ccc(C(=O)Nc3ccc(F)cc3F)cc2)nc1COc1ccccc1	-25.6%	-15.9%
Cc1ccc(-n2ncc3c(NCc4ccccc4)ncnc32)cc1Cl	u	22.4%
CCc1ccc(Oc2c(C(F)(F)F)oc3c(CN4CCN(CC)CC4)c(O)ccc3c2=O)cc1	4.7%	u
O=C(COc1ccccc1)OCc1cc(=O)n2nc(-c3cccs3)sc2n1	u	-17.3%
O=C(Nc1ccccc1C(F)(F)F)C1CCN(S(=O)(=O)c2ccccc2)CC1	11.7%	-21.8%
CCn1c(C)c(C)c2cc(C(=O)NCc3ccc(F)cc3)ccc21	-13.2%	-6.9%
Cc1ccc(C)c(NS(=O)(=O)c2ccc3c4c(cccc24)C(=O)N3)c1	u	u
CC(=O)N1c2ccc(S(=O)(=O)Nc3ccc(C)c(Cl)c3)cc2CC1C (configuration not stated)	u	-30.1%
Cc1cc(C)cc(N(CC(=O)Nc2ccc(C)cc2Cl)S(=O)(=O)c2c(C)[nH]c(=O)[nH]c2=O)c1	-5.6%	-26.3%
Cc1c(CNC2CCCCC2)c(C(=O)O)c(C)n1Cc1ccc(Cl)cc1	-15.9%	1.1%
COc1ccc(NC(=O)CN(c2ccc(C)cc2)S(=O)(=O)c2cccc3nonc23)cc1OC	-1.5%	-3.6%
CCOc1ccc(-n2ccnc2SCC(=O)Nc2ccc(OC)cc2OC)cc1	u	-33.9%
COc1ccc(CNC(=O)C(C)n2nc(C)c3c(C)n(-c4ccccc4)nc3c2=O)c(OC)c1 (configuration not stated)	u	u
Cc1cc(=O)[nH]c2nnc(SCc3c(F)cccc3Cl)n12	0.6%	-19.7%
Cc1ccc(-n2c(/C=C/c3c(C)n(C)c4ccccc34)nc3ccccc3c2=O)cc1	-14.9%	-2.2%
CCc1nn(CC(=O)NC(C)c2ccccc2)c(=O)c2cc3sccc3n12 (configuration not stated)	5.1%	7.6%
Cc1ccc(S(=O)(=O)C(CNS(=O)(=O)c2cc(F)ccc2F)c2cccs2)cc1 (configuration not stated)	u	-30.5%
COC(=O)c1ccccc1NC(=O)CSc1nc2sc3c(c2c(=O)[nH]1)CCCC3	-41.4%	-10.8%
Cc1nnc(NCc2ccc(F)cc2)c2c1nnn2Cc1ccccc1Cl	-7.8%	-5.2%
CCCNC(=O)c1ccc(-n2c(-c3ccccc3)cc3c2CCC(C)C3)cc1 (configuration not stated)	u	u
CCC(=C(c1ccc(O)cc1)c1ccc(OCCNC)cc1)c1ccccc1	x	u
CCOC(=O)c1cnc2c(ccc3ccccc32)c1Nc1ccccc1OCC	2.7%	0.1%
Cc1ccc(-c2nc3sc(CCNC(=O)c4ccc(C)c(C)c4)c(C)n3n2)cc1	2.9%	9.5%
COc1ccccc1NC(=O)C1=C(C)Nc2ncnn2C1c1ccccc1C(=O)O (configuration not stated)	-4.0%	-6.2%
Cc1ccc(S(=O)(=O)c2nc(-c3cccs3)oc2SC(C)c2ccccc2)cc1 (configuration not stated)	-23.3%	-19.1%
Cc1oc2ccc(O)c(CN3CCCCCC3)c2c1C(=O)Nc1cccc(C(F)(F)F)c1	u	u
COCC(=O)Oc1c(Sc2ccc(C)cc2)c(C)nn1C(C)(C)C	-1.6%	-24.3%
COc1ccc(NC(=O)CSc2nc(-c3ccco3)cc(C(F)(F)F)n2)cc1	u	-28.8%
COc1ccc(NC(=O)C(Cc2ccccc2)NS(=O)(=O)c2ccc3c(c2)CCC(=O)N3)c(OC)c1 (configuration not stated)	u	-10.2%
Cn1c(SCC(=O)N2CCCc3ccccc32)ncc(C(=O)Nc2ccccc2)c1=O	-12.0%	-15.0%
COc1ccc(-c2nsc(NC(=O)c3ccccc3Br)n2)cc1	15.0%	32.0%
Cc1ccc(OCC(=O)OC2=C(C(=O)c3ccccc3)N(C)S(=O)(=O)c3ccccc32)cc1	-39.7%	u
Cc1nnc(N2CCN(c3cccc(Cl)c3)CC2)c2c1nnn2Cc1ccc(F)cc1	-20.6%	-5.0%
Cc1ccc(C)c(Nc2cc(C(=O)NC3CCCC3)c3ccccc3n2)c1	2.5%	7.5%
COc1ccc(C(=O)CN2C(=O)N(c3cc(C)cc(C)c3)S(=O)(=O)c3ccccc32)cc1	6.1%	-25.1%
COCCCNC(=O)c1ccc(CSc2nc3cccnc3n2Cc2ccc(OC)cc2)cc1	u	-10.6%
CCOc1cccc2sc(N(CCN(CC)CC)C(=O)c3ccco3)nc12	-21.2%	3.3%
CCOC(=O)c1c(C)oc2nc(C)nc(NCCCN3CCN(c4cc(C)ccc4C)CC3)c12	-12.9%	9.2%
O=C(Nc1c(-c2ccccc2)nc2ccccn12)c1ccccc1F	-3.3%	-16.3%
CN(C)S(=O)(=O)c1ccc2c(c1)N(CC(=O)N1CCN(c3cccc(Cl)c3)CC1)CCS2	-20.1%	-9.4%
CC1CCc2noc(NC(=O)c3ccc([N+](=O)[O-])cc3)c2C1 (configuration not stated)	u	-1.7%
CCOC(=O)c1nc(Nc2cccc(C)c2)c2ccccc2n1	u	u
